Screening results (PubChem)
VACV E9 pol inh: vaccinia E9 polymerase processive synthesis inhibitors, primary screen, biochemical, absorbance | Vaccinia virus DNA polymerase (E9) processive complex | in vitro processive DNA synthesis, absorbance read-out; hits give low values; some inactives read as strong as hits | normalized absorbance, % (test concentration not listed) | hit rate 0.94% among 46,000 | AID 493162, 2011;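 active means replicate mean up to 90% and picked by the depositor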;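 further: 100% = median of the test wells of a plate; 100 nL library stock went into each well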
Numbers without * were called inactive. This is a subset; rates above refer to the full screens.

SMILES | VACV E9 pol inh
O=C1CCc2cc(S(=O)(=O)N3CCCC3C(=O)NC3CCCCC3)ccc2N1 (stereo not drawn) | 92
COc1ccc(NC=O)c(CS(=O)(=O)c2ccc(C)cc2)n1 | 100
C=CCN1C(=O)C2(c3ccccc31)c1c(oc3ccccc3c1=O)C(=O)N2CCCO (stereo not drawn) | 87
COc1ccc(-c2cc(C(=O)NCCCn3ccnc3)c3ccccc3n2)cc1 | 103
CCNC(=O)C1CC(=O)OC12CCCCC2 (stereo not drawn) | 100
CCCN(CCC)c1cc(Cl)nc(SC)n1 | 110
CCOC(=O)N1CCN(C(=O)C(CC(C)C)NS(=O)(=O)c2ccc3c(c2)oc(=O)n3C)CC1 (stereo not drawn) | 104
N#CC1=C(N)N(c2cccc(C(F)(F)F)c2)C(=O)C1 | 104
CCCn1c(-c2ccc(OC)c(OC)c2)nc2ccccc21 | 100
O=C(NC1C2CC3CC(C2)CC1C3)c1cc(F)c(F)cc1Cl (stereo not drawn) | 100
O=C(CSc1n[nH]c(=O)n1Cc1ccco1)Nc1ccccc1 | 98
COc1cc(Br)cc(/C=N/O)c1O | 98
O=C1CCCCC1Sc1nc2ccccc2[nH]1 (stereo not drawn) | 103
Cc1ccccc1N1C(=O)C(Oc2ccc(Cl)cc2)C1CNC(C)(C)C (stereo not drawn) | 104
COCCN1C(=O)/C(=C/c2cc(C)n(-c3ccncc3)c2C)C(=O)N(c2ccccc2)C1=O | 96
O=C1CCC(C(=O)OCC(=O)c2ccccc2)N1 (stereo not drawn) | 98
CC(C)CC(c1ccccc1)C(O)c1ccccc1 (stereo not drawn) | 106
CS(=O)(=O)Nc1cccc(C2=NN(C(=O)CCC(=O)O)C(c3cccs3)C2)c1 (stereo not drawn) | 96
CC1CCCCN1C(=S)NCCc1ccccc1 (stereo not drawn) | 101
Cc1ccc(Cc2nnc(C(=O)NCCC3=CCCCC3)o2)cc1 | 101
CCC(c1nc2ccccc2n1C)C(O)c1ccccc1 (stereo not drawn) | 101
Cc1ccc2oc(=O)c3cc(C(=O)NC(C)C)sc3c2c1 | 90
Cc1ccc(NC(=O)CCc2nnc3ccc(N4CCC5(CC4)OCCO5)nn23)cc1 | 100
Fc1ccc(-c2nn(-c3ccccc3)cc2C=NCc2ccccc2)cc1 | 100
O=C(CC12CC3CC(CC(C3)C1)C2)Nc1c(O)c2ccccc2oc1=O | 79
CC(=O)Nc1nnc(-c2cccs2)o1 | 104
Cc1cc2c(cc3c(SCC(=O)Nc4ccccc4F)nncn32)o1 | 101
Nc1nnc(-c2ccc(Cn3c(-c4cncs4)nc4ccccc43)cc2)s1 | 100
Cc1c(C(=O)/C=C/N(C)C)nnn1-c1cc(Cl)ccc1Cl | 110
Cn1nc(C(F)(F)F)c(C#N)c1NCc1ccccc1 | 121
CCn1c(=O)cc(SCC(=O)NC2CCCC2)c2ccccc21 | 103
O=c1c2c3c(sc2ncn1-c1ccccc1)CCCC3 | 100
CN(c1ccccc1)S(=O)(=O)c1cccc(C(=O)NC2CCCC2)c1 | 104
CCOC(=O)c1cccc(-n2sc(=O)n(C3Cc4ccccc4C3)c2=O)c1 | 108
CCc1ccc(CNC(=O)c2cc3c(C)nc4ccccc4c3o2)cc1 | 99
COc1cccc(C(=O)N(C)C2(c3ccccc3Cl)CCCCC2=O)c1OC (stereo not drawn) | 97
COc1ccc(CC(=O)Nc2c3c(nn2-c2ccc(C)cc2)CSC3)cc1 | 100
O=C(O)c1ccc(CN2C(=O)CSC2=S)cc1 | 84
CC12OC(=N)C(C#N)(C1c1ccccc1)C(C#N)(C#N)C(c1ccccc1)O2 (stereo not drawn) | 102
COc1cccc2cc(S(=O)(=O)c3ccc(Cl)cc3)c(=O)oc12 | 106
CCOc1ccc(Nc2nc3c(C)cccc3cc2C#N)cc1 | 100
CNC(=O)c1cccc(NS(=O)(=O)c2ccc(C)cc2)c1 | 92
CCOC(=O)C(C)(C)Sc1nc(-c2ccc(F)cc2)nc2c1c(=O)n(C)c(=O)n2C | 100
O=C(Cc1ccccc1)Nc1nonc1NC(=O)c1ccccc1 | 96
CCOC(=O)c1cnc2c(ccc3ccccc32)c1NCc1ccco1 | 100

In another format: results already given.
Compound: CCn1c(=O)cc(SCC(=O)NC2CCCC2)c2ccccc21
  VACV E9 pol inh = 103

Compound: CCc1ccc(CNC(=O)c2cc3c(C)nc4ccccc4c3o2)cc1
  VACV E9 pol inh = 99

Compound: O=C(O)c1ccc(CN2C(=O)CSC2=S)cc1
  VACV E9 pol inh = 84

Compound: CCOC(=O)c1cccc(-n2sc(=O)n(C3Cc4ccccc4C3)c2=O)c1
  VACV E9 pol inh = 108

More entries follow.
SMILES | VACV E9 pol inh
COC(=O)CN1CCN(S(=O)(=O)c2ccc(Br)cc2)CC1 | 97
CCOC(=O)N1CCN(C(=O)c2sc3cc(F)ccc3c2Cl)CC1 | 87
N#C/C(N)=C(\C#N)N=Cc1ccc(C#N)cc1 | 97
CC(C)(C)S(=O)(=O)c1cccs1 | 90
CC(C)n1c(O)c(C2=c3ccccc3=NC2=O)sc1=S | 103
CCCCC[C@@H](/C=C/C=C\C/C=C\C/C=C\CCCC(=O)O)OO | 98
Cc1ccc2cc3c(nc2c1)N(c1ccccc1)CC3 | 100
O=C(CSC1CCCC1)NCC1CCCCC1 | 101
O=Cc1c(O)n(-c2ccc(Cl)cc2)c(=O)[nH]c1=O | 100
CN(CC(=O)NCc1ccccc1)c1nnc(N2CCCC2=O)s1 | 76
O=C(Nc1nn[nH]n1)c1cc(F)c(F)cc1Cl | 105
c1ccc(Nc2c(-c3ccco3)nc3ccccn23)cc1 | 104
c1ccc(COc2ccc(C3SCCS3)cc2)cc1 | 99
Cn1c(=O)c2c(nc(Br)n2CC(=O)c2ccccc2)n(C)c1=O | 100
S=c1[nH]cnc2scc(-c3ccc(Cl)cc3)c12 | 98
COC(=O)c1ccccc1NC(=O)Cn1c(=O)c2ccccc2n2nncc12 | 103
Cc1cc(C(=O)O)c(S(C)(=O)=O)s1 | 98
CCC(=O)NCCc1nc2ccccc2n1C(C)C | 90
CC1(C)Cc2nc(N3CCCC3)c(C#N)cc2CO1 | 97
COC(=O)c1ccc(NC(=O)NC(=O)C(F)(F)F)cc1 | 121
O=C(CSC1=NC2(CCCC2)N=C1c1ccccc1)Nc1ccccc1 | 99
O=C(c1cccs1)c1coc2ccc(O)cc12 | 98
COc1nc(C#N)nc(N2CCCCC2)n1 | 96
O=C(c1cccc(Cl)c1)N1CCCC1 | 94
CC1=C(C(=O)N2CCOCC2)C(c2c(F)cccc2Cl)C2=C(CCCC2=O)N1 (stereo not drawn) | 100
CCOC(=O)/C(C#N)=C(\C)C1CC1 | 97
Nc1ccc(Cc2nc3cc4ccccc4cc3[nH]2)cc1 | 98
CCc1cc2c(NC3CCCC3)ncnc2s1 | 102
COc1ccc(CCNC(=O)c2coc3ccccc3c2=O)cc1 | 99
OCCN1CN=C(Nc2nc3ccccc3o2)NC1 | 101
CN(CCC#N)C(=O)C1CCC(CNS(=O)(=O)c2ccccc2)CC1 (stereo not drawn) | 97
N#CCn1nnc2ccccc21 | 102
Cc1nn(-c2ccccc2)c2sc(C(=O)NC3CCSC3=O)cc12 (stereo not drawn) | 83
COCc1cc(C)nc2sc3c(c12)NC(c1ccccc1)NC3=O (stereo not drawn) | 100
COc1ccccc1CNC(=O)/C=C/c1cccc(Br)c1 | 93
CCC(CO)NC(=O)c1cc2cc(Br)cc(Br)c2o1 (stereo not drawn) | 83
COc1ccc(-c2ccc(CCC(=O)O)o2)cc1 | 97
CCSC1=C(C#N)C(=O)NC(c2ccc(OC)cc2)S1 (stereo not drawn) | 101
O=C1Nc2ccccc2C12CC(c1ccc(F)c(Cl)c1)=NN2 (stereo not drawn) | 100
OCc1ccc(OCc2cnc(Cl)s2)cc1 | 100
O=C(CC(c1ccccc1)c1cc(Br)ccc1O)NCCCN1CCOCC1 (stereo not drawn) | 100
CSC(C)C(=O)C1=C(O)c2ccccc2C1=O (stereo not drawn) | 89
O=C1C2C3C=CC(C3)C2C(=O)N1C1CCS(=O)(=O)C1 (stereo not drawn) | 99
Cc1ccc2c(c1)c(-c1ccccc1)c(-c1ccccc1)n2CC(O)Cn1c(C)cc(C)nc1=O (stereo not drawn) | 100
Cc1ccc2nc(-c3ccc(NC(=O)c4ccncc4)cc3)sc2c1 | 107
CCn1cc(S(=O)(=O)CC(=O)NC2CCCCC2)c2ccccc21 | 96
O=C(NCc1ccco1)c1ccccc1SCc1ccc(F)cc1 | 100
Cc1nc2cc(NC(=O)c3ccc4c(c3)OCCO4)ccc2s1 | 101
CCc1cccc(NC(=S)N(CCOC)C(C)c2cccs2)c1 (stereo not drawn) | 121
Cn1nc(NC(=O)CC(C)(C)CC(=O)O)c2c(F)cccc21 | 96
Oc1ccc(-c2[nH]ncc2-c2cnn(-c3ccccc3)c2)c(O)c1 | 92
NC(=S)/N=C1\CCCCC1=C1CCCCC1 | 99
O=C(NCc1ccco1)c1ccc2c(=O)n(C3CCCCC3)c(SCc3cccc(F)c3)nc2c1 | 101
Cc1cc(=O)[nH]c(SCc2cn3c(C)cc(C)nc3n2)n1 | 88
CC(C)C(NC(=O)CC12CC3CC(CC(C3)C1)C2)C(=O)O (stereo not drawn) | 89
O=C1CCc2cc(OCc3ccc(Cl)cc3)ccc2O1 | 108
O=C(OCCN1CCCCC1)c1ccccc1Cl | 108
COc1ccc(N=Cc2cn(-c3ccccc3)nc2-c2ccccc2)cc1 | 99
O=C(c1cn(CCOc2ccccc2)c2ccccc12)C1CC1 | 106
Brc1ccc2nc(CSc3nnc4ccccn34)cn2c1 | 90

Continued; the last six above are carried over.
SMILES | VACV E9 pol inh
CC(C)C(NC(=O)CC12CC3CC(CC(C3)C1)C2)C(=O)O (stereo not drawn) | 89
O=C1CCc2cc(OCc3ccc(Cl)cc3)ccc2O1 | 108
O=C(OCCN1CCCCC1)c1ccccc1Cl | 108
COc1ccc(N=Cc2cn(-c3ccccc3)nc2-c2ccccc2)cc1 | 99
O=C(c1cn(CCOc2ccccc2)c2ccccc12)C1CC1 | 106
Brc1ccc2nc(CSc3nnc4ccccn34)cn2c1 | 90
Cc1c(N=CC(O)CN2CC3CC(C2)c2cccc(=O)n2C3)c(=O)n(-c2ccccc2)n1C (stereo not drawn) | 101
c1ccc(-c2nsc(NC3Cc4ccccc4C3)n2)cc1 | 100
Fc1ccc(-c2cn3cccc(OCc4ccc(Cl)c(Cl)c4)c3n2)cc1 | 94
Nc1nnc(Cc2ccccc2)s1 | 104
Cc1ccc(NC(=O)CC(=O)Nc2ccc(C)cc2C)c(C)c1 | 111
CCOC(=O)c1c(F)c(F)c(S(C)(=O)=O)c(F)c1F | 110
N#Cc1cc(C(=O)c2cc(Br)ccc2O)cn(-c2ccccc2F)c1=O | 102
N#Cc1cn(C2CCCCC2)c(=O)[nH]c1=O | 104
O=C(c1ccc[nH]c1=S)n1ccnc1 | 112
CCCC(=O)Oc1ccc(N(C(=O)CCC)S(=O)(=O)c2ccccc2)cc1 | 93
COc1ccc(/C=C2/CC(C(C)(C)C)C/C(=C\c3ccc(OC)cc3OC)C2=O)c(OC)c1 (stereo not drawn) | 91
COc1cccc(NC(=O)c2ccc(OC)c(OC)c2)c1 | 95
O=C1CCCN1c1ncccn1 | 82
O=S(=O)(NC1CCCCC1NC1CCCCC1)c1ccccc1 (stereo not drawn) | 97
COc1ccc(C2c3sc(=S)[nH]c3SC3C4CCC(C4)C23)cc1 (stereo not drawn) | 100

Eight of these compounds in a different format.
canonical_smiles,VACV E9 pol inh
Fc1ccc(-c2cn3cccc(OCc4ccc(Cl)c(Cl)c4)c3n2)cc1,94
Cc1ccc(NC(=O)CC(=O)Nc2ccc(C)cc2C)c(C)c1,111
N#Cc1cn(C2CCCCC2)c(=O)[nH]c1=O,104
O=S(=O)(NC1CCCCC1NC1CCCCC1)c1ccccc1 (stereo not drawn),97
c1ccc(-c2nsc(NC3Cc4ccccc4C3)n2)cc1,100
Nc1nnc(Cc2ccccc2)s1,104
COc1cccc(NC(=O)c2ccc(OC)c(OC)c2)c1,95
CCCC(=O)Oc1ccc(N(C(=O)CCC)S(=O)(=O)c2ccccc2)cc1,93

Next part.
SMILES | VACV E9 pol inh
C/C(=N\O)c1ccc(O)cc1O | 100
O=C(Nc1cccc(Cl)c1)Nc1nncs1 | 99
C=CCNC(=O)c1c(N)n(-c2ccccc2)c2nc3ccccc3nc12 | 94
CC(/C=C1\SC(=S)N(CCCC(=O)Nc2cccnc2)C1=O)=C\c1ccccc1 | 98
CCCCCCCCCCCCCCCCOCC(CO)OC (stereo not drawn) | 98
C[n+]1c(/C=C/Nc2ccccc2)sc2ccccc21 | 75*
O=C(NCCc1ccc(Cl)cc1)c1cc2c(=O)[nH]c3ccccc3c2s1 | 98
O=C(Nc1ccc2sccc2c1)C1CC1 | 100
O=C(NC(C(=O)O)C12CC3CC(CC(C3)C1)C2)c1ccccc1 (stereo not drawn) | 100
COc1ccc2c(c1)CCc1c(C(=O)N(C)c3ccccc3)noc1-2 | 98
O=C(COc1ccc(Cl)cc1Cl)NC1CCS(=O)(=O)C1 (stereo not drawn) | 100
CNc1ccc2cccc(Oc3ccc4cccc(O)c4n3)c2n1 | 99
N#CC(C#N)Cc1ccccc1F | 119
Cc1ccc2[nH]c3c(c2c1)CCCC3C(N)=O (stereo not drawn) | 91
COC(=O)c1ccc(NC(=O)CC(CC(=O)O)c2ccccc2)cc1 (stereo not drawn) | 101
Cc1nc(C(F)(F)F)nc(Sc2cccc(C(F)(F)F)c2)c1C | 91
Cc1ccccc1OCCC(=O)Nc1ccc(F)c(Cl)c1 | 73
CCCCN(C)c1ncnc2c1sc1nc3c(cc12)COC(C)(C)C3 | 100
